From PubChem
Rango complex inh: inhibitors of Rango-importin beta complex formation; AID 540263; Q14974; 0.031% of 340,000 active; Potency, µM (doses to about 92.2 µM), inactives show at the top dose inhibition of complex formation; Rango CFP/YFP FRET sensor + importin beta, 45 min; active = rising FRET ratio curve, often small or poorly fitted; inconclusive = mostly compound fluorescence or quenching in the first reads; inactive = flat curves in all reads;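 note: potency is the fitted concentration of half-maximal effect; 0% = DMSO wells and 100% = buffer wells lacking importin beta; nearly all actives have a fitted effect of over 15% in size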
Target sequence (Q14974 whole entry, looked up): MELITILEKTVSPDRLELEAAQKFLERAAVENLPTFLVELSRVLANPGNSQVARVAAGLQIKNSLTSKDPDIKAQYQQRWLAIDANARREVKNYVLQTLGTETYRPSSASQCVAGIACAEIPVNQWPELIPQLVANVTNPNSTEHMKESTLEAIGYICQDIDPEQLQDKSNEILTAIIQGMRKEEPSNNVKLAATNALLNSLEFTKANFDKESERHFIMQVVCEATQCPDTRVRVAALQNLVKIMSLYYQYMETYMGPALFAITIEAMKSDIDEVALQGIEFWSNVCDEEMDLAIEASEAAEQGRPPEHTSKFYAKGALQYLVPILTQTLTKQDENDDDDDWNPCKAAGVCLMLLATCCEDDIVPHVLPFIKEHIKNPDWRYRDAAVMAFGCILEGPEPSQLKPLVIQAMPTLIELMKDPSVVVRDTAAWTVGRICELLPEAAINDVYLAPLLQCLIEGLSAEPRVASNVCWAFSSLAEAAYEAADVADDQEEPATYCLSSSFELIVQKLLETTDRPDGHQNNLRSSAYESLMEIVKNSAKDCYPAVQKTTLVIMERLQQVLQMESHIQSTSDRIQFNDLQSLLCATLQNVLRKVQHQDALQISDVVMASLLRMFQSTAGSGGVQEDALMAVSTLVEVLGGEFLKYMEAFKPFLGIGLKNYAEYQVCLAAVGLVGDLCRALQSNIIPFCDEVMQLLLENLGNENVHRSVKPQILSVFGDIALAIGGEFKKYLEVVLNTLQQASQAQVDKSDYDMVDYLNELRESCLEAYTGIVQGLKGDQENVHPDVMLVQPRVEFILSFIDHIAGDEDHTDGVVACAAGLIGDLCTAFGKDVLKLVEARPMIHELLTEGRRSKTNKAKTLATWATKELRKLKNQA
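FRET biosensor Rango (snurportin 1 IBB between N-terminal EYFP and C-terminal Cerulean), 50 nM in PBS/1 mM DTT/0.02% Tween-20/0.1% BSA, preincubated 5 min RT with compound; 0.125 microM importin beta added, 45 min RT, CFP/YFP FRET ratio read.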
GLA inh pH 4.5: inhibitors of human alpha-galactosidase A at pH 4.5; P06280; purified enzyme, 4-MU-alpha-Gal fluorescence, pH 4.5; activity change, negative = inhibition, % at 105 µM; 230,000 tested, under 10 active; AID 1467; inconclusive = small, poorly fitted or top-dose-only inhibition, or a rising curve; inactive = flat fitted curve, though single readings scatter; no compound was filed as active;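 note: 0% = full activity with enzyme and -100% = basal without enzyme; dose as in the result columns while the protocol names 77 µM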
miR-21 FLuc: miR-21 reporter, rising signal; 340,000 tested, under 10 active; HeLa miR-21 FLuc reporter, luciferase, 48 h; AID 2288; Potency, µM (series often up to 38.3 µM), without a hit: at the top dose reporter change, positive = more light; active = well fitted rising curve with a large enough effect; inconclusive = small, poorly fitted or top-dose-only effect; inactive = no such curve, though single readings can be large or run the other way;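 note: % of control where 0% means no effect; miR-21 action dims this reporter so a rising signal means less miR-21 action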
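HeLa miR-21-FLuc reporter line, endogenous miR-21; 2000 cells/well in DMEM/10% FBS; compound titration up to ~40uM final, 48 h, 37 degree Celsius; luciferase detection reagent, 15 min lysis, CCD luminescence.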
Rango release inh: inhibition of RanGTP-driven Rango-importin beta dissociation; Biochemical FRET Rango-importin beta, RanGTP-induced dissociation; 0.071% of 340,000 active; Potency, µM (highest dose often 46.1 µM), inactives show at the highest dose activity change, negative = inhibition; O95149+P62826; active means falling FRET ratio curve, often poorly fitted, with flat reads before Ran was added; inconclusive means other falling curves, or compound fluorescence or quenching; inactive means flat or rising ratio curve;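 note: potency is the fitted concentration of half-maximal effect; % of control where 0% means no effect; nearly all actives have a fitted effect of over 45% in size; -100% = wells without RanGTP and RCC1; the record marks most hits as doubtful in a second field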
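Recombinant Rango FRET biosensor (EYFP–snurportin 1 IBB–cerulean CFP10) at 0.1 uM premixed with 0.25 uM importin beta in PBS, 1 mM DTT, 0.02% Tween-20, 0.1% BSA. Compound added 5 min; RanGTP-RCC1 (0.6 uM Ran, 2 mM GTP, 0.2 uM RCC1) then triggers release, read at 45 min.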
Starred values were filed as active, the others as inactive; ? = inconclusive; . = no result given; & = joins results of further samples; [ ] = remark or other dose. This is a subset. The share of hits here may be higher or lower than overall.

Abbreviations: A = Rango complex inh; B = GLA inh pH 4.5; C = miR-21 FLuc; D = Rango release inh
CCOC(=O)c1c(-c2cccc3ccccc23)csc1NC(=O)C1C2CCC(O2)C1C(=O)O (stereo not given)
  A = 0.2% | B = -7.8 | C = 0.4% | D = 1.3%

O=C(CN1C(=O)S/C(=C\C=C\c2ccccc2)C1=O)Nc1ccccc1C(=O)O
  A = -1.1% | B = -5.7 | C = -22.7% | D = -8.1%

O=C(NN=C1CCCC1)c1cc(-c2ccc(F)cc2)nc2ccccc12
  A = 7.1% | B = 0.8 | C = 11.6% | D = ?

N#Cc1nc(-c2ccc(OCc3ccccc3)cc2)oc1NCCCN1CCOCC1
  A = -1.9% | B = -15.6 | C = 2.8% | D = 1.5%

CCOc1cc(-c2noc(CCC(=O)N3CCOCC3)n2)ccc1OC
  A = -3.0% | B = -0.9 | C = -5.9% | D = 6.7%

CCC(=O)c1cn(CC(=O)Nc2cccc(OC)c2)c2ccccc12
  A = 0.3% | B = . | C = -0.3% | D = 27.3%

O=C(Cn1nc(C(=O)O)c2ccccc2c1=O)NCc1ccco1
  A = 1.2% | B = 0.4 | C = -0.2% | D = -20.8%

O=C(Cc1ccc(S(=O)(=O)N2CCOCC2)s1)N(Cc1ccccc1)c1ccccc1
  A = ? | B = . | C = . | D = -2.1%

COc1ccc(NC(=S)Nc2ccc(S(=O)(=O)N3CCOCC3)cc2)c(OC)c1
  A = -0.1% | B = -5.8 | C = -1.6% | D = -2.3%

COc1ccc(Cl)cc1NC(=O)COC(=O)CCNS(=O)(=O)c1cccs1
  A = -1.7% | B = . | C = . | D = -10.7%

COc1ccc(N(CC(=O)N2CCN(c3cc(C)ccc3C)CC2)S(=O)(=O)c2c(C)noc2C)cc1
  A = -1.2% | B = . | C = -3.6%&-3.8% | D = -1.2%

O=C(/C=C/c1ccco1)N1CCN(c2ccccc2)CC1
  A = -3.2% | B = . | C = -29.6% | D = 2.2%

CCn1c(SCC(=O)OC)nnc1-c1ccccc1
  A = 0.2% | B = 11.9 | C = -0.9% | D = 0.2%

COc1ccc(Cl)cc1C(=O)NCCc1ccc(S(=O)(=O)NC(=O)NC2CCCCC2)cc1
  A = 6.2% | B = -7.2&-7.7&1.6&-3.1&-6.6 | C = -3.8% | D = -17.2%

O=C(Nc1cnn(Cc2ccc(F)cc2)c1)C(c1ccccc1)c1ccccc1
  A = -0.5% | B = -11.3 | C = 5.7% | D = -15.3%

O=C(O)c1cccnc1SCc1cccc(Cl)c1
  A = 2.4% | B = -1.3[21.1 µM] | C = -13.7%&-18.0% | D = -14.9%

COc1ccc(C(C)NC(=O)C23CC4CC(CC(C4)C2)C3)cc1OC (stereo not given)
  A = -0.2% | B = . | C = -13.7% | D = -7.7%

Cc1ccc(S(=O)(=O)N2CCCC2C(=O)n2nc(C)cc2C)cc1 (stereo not given)
  A = -4.0% | B = -1.4 | C = -0.8% | D = 24.1%

CN(Cc1nc(-c2ccc(C(F)(F)F)cc2)no1)C1CCOCC1
  A = -0.5% | B = 2.3 | C = -3.5% | D = 3.4%

CC(=O)Nc1ccc(OC(F)(F)Cl)cc1
  A = ? | B = 2.3 | C = -1.8% | D = 8.5%

CC(NC(=O)c1cccc(S(=O)(=O)N(C)C)c1)c1nc2ccccc2[nH]1 (stereo not given)
  A = -0.4% | B = 1.8 | C = -5.3% | D = -9.6%

COc1ccc(OCc2nnc(SCC(=O)NC3CC4CCC3C4)o2)cc1 (stereo not given)
  A = 0.0% | B = . | C = 2.5% | D = 3.0%

CN(C)c1ccc(C(=S)N2CCOCC2)cc1
  A = -1.8% | B = -1.6 | C = -2.7% | D = 7.3%

C=CCN(CC=C)Cc1c(C)[nH]c2c(C)c(C)ccc2c1=O
  A = -2.5% | B = 11.1 | C = 1.6% | D = 6.6%

Cc1cc(C)nc(N/N=C/c2cccc([N+](=O)[O-])c2)n1
  A = 0.1% | B = -7.6 | C = -12.0% | D = -10.7%

The last three records of the section above are carried over, then new ones follow:
Abbreviations: A = Rango complex inh; B = GLA inh pH 4.5; C = miR-21 FLuc; D = Rango release inh
CN(C)c1ccc(C(=S)N2CCOCC2)cc1
  A = -1.8% | B = -1.6 | C = -2.7% | D = 7.3%

C=CCN(CC=C)Cc1c(C)[nH]c2c(C)c(C)ccc2c1=O
  A = -2.5% | B = 11.1 | C = 1.6% | D = 6.6%

Cc1cc(C)nc(N/N=C/c2cccc([N+](=O)[O-])c2)n1
  A = 0.1% | B = -7.6 | C = -12.0% | D = -10.7%

CCOc1ncccc1C(=O)OCC(=O)NCc1ccc2c(c1)OCO2
  A = 0.3% | B = -11.1 | C = -1.2% | D = -13.4%

COc1ccc(-n2c(Cc3cccn3C)nnc2SCC(=O)Nc2cccc(F)c2)cc1
  A = -0.4% | B = 4.9 | C = -2.2% | D = -2.6%

CCCc1ccc(OC(=O)c2ccc(O)cc2Cl)cc1
  A = -4.1% | B = -8.8 | C = -17.0% | D = 9.4%

O=C(Oc1ccc(Cl)c2cccnc12)c1cccnc1
  A = -1.3% | B = . | C = 23.5% | D = 12.3%

CC(NC(=O)c1ccco1)C(=O)N1CCCCC1 (stereo not given)
  A = -0.6% | B = . | C = 3.7% | D = 4.1%

CC1(C)CC(=O)C=C(Nc2ccccc2N)C1
  A = -1.0% | B = . | C = -6.3% | D = -15.1%

CN(NC1OC(=O)c2ccccc21)c1ncc(C(F)(F)F)cc1Cl (stereo not given)
  A = -0.4% | B = -5.8 | C = -40.7% | D = 1.7%

N#Cc1cccc(NC(=O)NCCc2c[nH]c3ccccc23)c1
  A = -4.2% | B = 4.2 | C = 4.2% | D = -0.3%

CC1(OC(=O)CCc2ccccc2)C(=O)C=C2C=C(c3ccc(C#N)cc3)N(C3CCCCC3)C=C2C1=O (stereo not given)
  A = ? | B = -9.1&-10.5 | C = 9.7% | D = -7.5%

Brc1ccc(-c2noc(COc3ccc4c(c3)CCC4)n2)o1
  A = -0.2% | B = 11.1 | C = -19.1% | D = -13.6%

CCOC(=O)N1CCN(C(=O)c2cn(CC)c3ccc(S(=O)(=O)N4CCOCC4)cc3c2=O)CC1
  A = 4.0% | B = . | C = -0.4% | D = 0.7%

CCC(C)(C)NC(=O)C(c1ccco1)N(C(=O)c1csnn1)c1cccc(F)c1 (stereo not given)
  A = 1.0% | B = 1.3 | C = -1.8% | D = 0.8%

C[C@H](C(O)c1ccccc1)N(C)C(=O)CN (stereo not given in full)
  A = 3.8% | B = . | C = -1.8% | D = -3.4%

c1ccc(CSc2ncnc3ccccc23)cc1
  A = -0.6% | B = 1.4 | C = -22.1% | D = 5.8%

Cc1ccc(C(=O)N/C(=C\c2ccc(-c3ccccc3[N+](=O)[O-])o2)C(=O)NCCCN(C)C)cc1
  A = ? | B = . | C = -1.2% | D = ?

CC(=O)Nc1ccc(NC(=O)Cn2c(=O)n(-c3ccc(C)cc3)c(=O)c3oc4ccccc4c32)cc1
  A = -3.6% | B = 0.6 | C = 4.2% | D = -13.3%

COC(=O)CCc1nc2c(C#N)c(-c3ccc(Cl)cc3)ccn2n1
  A = 0.0% | B = -20.5 | C = -5.6% | D = 1.4%

O=C(CCNC(=O)c1ccc(Br)cc1)NC1CCCCCC1
  A = -3.2% | B = . | C = . | D = 1.3%

O=C(CN1C(=O)NC2(CCCC2)C1=O)NNC(=O)c1ccccc1
  A = 5.6% | B = . | C = . | D = 0.1%

CCCCn1c(/N=C/c2c[nH]c3ccccc23)nc2ccccc21
  A = ? | B = -2.2 | C = 0.2% | D = -4.8%

COc1ccccc1Oc1ccccc1C(=O)O
  A = -0.7% | B = -16.3 | C = -1.4% | D = 4.9%

NCCC1CN(C(=O)OCc2ccccc2)c2ccccc21 (stereo not given)
  A = 1.6% | B = . | C = . | D = 1.2%

O=C(C[n+]1ccccc1)N/N=C/c1ccccc1[N+](=O)[O-]
  A = -2.0% | B = 4.5 | C = -6.5% | D = 1.4%

CN(CCCNC(=O)C1CCN(S(=O)(=O)c2cccc3nsnc23)CC1)Cc1ccccc1
  A = -2.7% | B = -8.8 | C = -0.4% | D = -7.4%

Cc1occc1C(=O)Nc1cc(S(=O)(=O)N2CCOCC2)ccc1OC(C)C
  A = -3.2% | B = . | C = . | D = -13.2%

Limited to Rango release inh, for some of the entries so far:
mol,Rango release inh
CCOC(=O)N1CCN(C(=O)c2cn(CC)c3ccc(S(=O)(=O)N4CCOCC4)cc3c2=O)CC1,0.7%
CCC(C)(C)NC(=O)C(c1ccco1)N(C(=O)c1csnn1)c1cccc(F)c1 (stereo not given),0.8%
C[C@H](C(O)c1ccccc1)N(C)C(=O)CN (stereo not given in full),-3.4%
c1ccc(CSc2ncnc3ccccc23)cc1,5.8%
Cc1ccc(C(=O)N/C(=C\c2ccc(-c3ccccc3[N+](=O)[O-])o2)C(=O)NCCCN(C)C)cc1,?
